TRPV1 potentiator: potentiators of human vanilloid receptor 1 (TRPV1); Q8NER1; TRPV1-expressing cells, Fluo-8 calcium influx, capsaicin EC20 potentiation; host cell line not named in the record; control for the full effect not named in the record; potentiation, % at 8.33 µM; hit rate 0.02% among 320,000; active means potentiation above 80%; inconclusive means 30% to 80%; inactive means below 30%; note: 0% is about no effect
Target sequence (Q8NER1 whole entry, looked up): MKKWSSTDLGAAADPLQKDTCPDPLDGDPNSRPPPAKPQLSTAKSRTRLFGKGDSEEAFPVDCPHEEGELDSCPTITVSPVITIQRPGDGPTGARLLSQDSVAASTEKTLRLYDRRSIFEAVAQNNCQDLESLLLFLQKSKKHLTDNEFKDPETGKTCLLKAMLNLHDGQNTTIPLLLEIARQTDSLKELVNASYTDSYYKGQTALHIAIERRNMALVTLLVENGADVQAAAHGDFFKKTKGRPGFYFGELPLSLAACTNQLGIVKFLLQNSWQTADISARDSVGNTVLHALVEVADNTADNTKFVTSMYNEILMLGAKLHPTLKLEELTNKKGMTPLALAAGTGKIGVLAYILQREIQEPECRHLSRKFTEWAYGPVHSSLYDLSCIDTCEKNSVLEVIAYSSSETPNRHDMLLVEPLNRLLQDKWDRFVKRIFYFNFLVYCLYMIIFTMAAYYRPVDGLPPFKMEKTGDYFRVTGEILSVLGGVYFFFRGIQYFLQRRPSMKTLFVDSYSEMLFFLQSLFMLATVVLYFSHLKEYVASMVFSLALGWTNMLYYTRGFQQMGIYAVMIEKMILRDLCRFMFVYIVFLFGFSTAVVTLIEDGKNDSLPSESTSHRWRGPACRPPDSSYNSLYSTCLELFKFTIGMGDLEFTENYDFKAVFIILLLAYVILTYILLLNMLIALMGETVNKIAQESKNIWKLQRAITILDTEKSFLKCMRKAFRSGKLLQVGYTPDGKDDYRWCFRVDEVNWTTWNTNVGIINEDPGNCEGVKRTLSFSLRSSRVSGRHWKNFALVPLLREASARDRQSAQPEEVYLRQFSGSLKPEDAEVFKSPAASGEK
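Fluo-8 calcium influx in TRPV1-expressing cells, kinetic read (ex 480/em 520 nm). Compound added and read 3 min for agonist activity, followed by capsaicin at EC20 final and 2 min further read for enhancement.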
Six1-Eya2 inh: blocks human Six1 binding to Eya2. Q15475+O00167. AlphaScreen GST-Six1/His-Eya2 binding, biochemical; hits give low values; control for the full effect not named in the record. activity change, % (concentration not given with the values). hit rate 0.56% among 360,000. AID 651725; in the data active = activity change below about -65%; inconclusive = about -30% to -65%; inactive = above about -30%; note: % is set by controls: 0 for no effect and ±100 for the full control effect
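Homogeneous AlphaScreen proximity assay pairing GST-Six1 with His-tagged Eya2 (added as 5X mix: 250 nM and 500 nM) in 50 mM Tris pH 8.0, 300 mM NaCl, 1 mM TCEP. Glutathione donor and nickel acceptor beads; 1 h, 37 °C, dark.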
CtBP-E1A inh: inhibitors of CtBP/E1A interaction | AlphaScreen GST-E1A/His-CtBP binding, 1536-well; hits give low values; control for the full effect not named in the record | activity change, % (concentration not given with the values) | hit rate 0.49% among 340,000 | AID 651724; in the data active means activity change below about -65%; inconclusive means about -30% to -65%; inactive means above about -30%; note: % is set by controls: 0 for no effect and ±100 for the full control effect
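AlphaScreen with 125 nM GST-E1A and 125 nM His-CtBP (5X stocks) in Tris pH 8.0, 300 mM NaCl, BSA, Tween 20, TCEP. Compounds preincubated 2 h at 37 deg C, then glutathione donor/nickel acceptor beads added for 1 h at 37 deg C in dark.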
TRPML1 ag: activates the human TRPML1 channel | TRPML1-expressing cells, Ca2+ dye fluorescence, FDSS; host cell line not named in the record; reference of the full effect not given here | Q9GZU1 | activation, % (test concentration not listed) | hit rate 0.12% among 410,000; in the data active = activation above about 50%; inconclusive = about 30% to 50%; inactive = below about 30%; note: 0% is about no effect; the text of the record puts the active cut at 80%
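In this qHTS format, compounds were pin-transferred onto Ca8-dye-loaded TRPML1-DL cells induced with Tet overnight, and intracellular Ca2+ fluorescence was recorded kinetically for 110 s after a 10 s baseline. A subsequent 4uM final 54-4 (EC80) addition followed by a second 110 s read served as the antagonist phase.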
TRPML1 blocker: blocks the human TRPML1 channel. hit rate 0.02% among 390,000. TRPML1-inducible cells, Ca2+ dye fluorescence, FDSS; hits give low values; inhibition of EC80 agonist-evoked calcium signal. activity change, negative = inhibition, % (concentration not given with the values); in the data active means activity change below about -50%; inconclusive means about -30% to -50%; inactive means above about -30%;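 note: stimulus is agonist 54-4 at its EC80 concentration; % is set by controls: 0 for no effect and ±100 for the full control effect; compound concentration not given in the record; the text of the record puts the active cut at -80%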
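Calcium fluorescence in TRPML1-DL cells induced overnight with Tet: a 110 s read after compound pin addition, then a 110 s antagonist read after challenge with 54-4 at 4 uM final (EC80).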
D2 potentiator: positive allosteric modulators of human D2 dopamine receptor. DiscoveRx D2 beta-arrestin cells, luminescence, 90 min; 100% = 57 uM dopamine signal. potentiation, % (test concentration not listed). AID 624464. P14416. hit rate 0.23% among 360,000; active = potentiation of 50% or more; inconclusive = 30% to 50%; inactive = 30% or less;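 note: compound concentration not given in the record; tested on top of an EC20 dose of dopamine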
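PathHunter D2 cells, attached overnight at 37 deg C, received compound in DMSO plus dopamine at EC20 (50 nM final) for 90 min at 37 deg C. Beta-arrestin recruitment was read as luminescence after 1 h with detection reagent at ambient temperature.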
The depositor's hits bear a star; ? = inconclusive; . = not tested or not shown.

The line under a structure holds: D2 potentiator	TRPML1 ag	TRPV1 potentiator	Six1-Eya2 inh	TRPML1 blocker	CtBP-E1A inh
- COc1ccc(CC(=O)Nc2sc3c(c2C#N)CC(C)(C)NC3(C)C)cc1OC
 : -4	0.8	21	0	25	-11
- NC(=O)C1=CC2C3C=CC2(O)C(=O)OC3O1 (stereo not given)
 : 1	-0.3	.	-6	7	7
- O=c1[nH]c(NCc2ccccc2)nc2c1CCCC2
 : -5	2.4	-16	-1	20	3
- CCOc1ccc(NC(=O)CN(C)C(=O)CCCn2c(=O)oc3ccccc32)cc1OCC
 : -17	-1.3	14	-3	17	-6
- c1ccc(-c2csc(Nc3ncccn3)n2)cc1
 : -17	0.5	-12	9	27	6
- CC(=O)c1ccc(C(=O)Nc2nnc(-c3ccc(Cl)cc3)o2)cc1
 : -5	-0.7	8	-18	-11	?
- CCN1CCN(Cc2c(O)ccc3c(C)cc(=O)oc23)CC1
 : 0	-0.9	17	0	-4	.
- CC(C)=CC(=O)Nc1nnc(-c2ccccc2C)s1
 : 8	-0.6	6	4	-13	-14
- COc1ccccc1CNC(=O)c1cn(C)c(=O)c2cc(OC)c(OC)cc12
 : -1	0.5	11	7	-8	5
- Cc1ccc(N(C(=O)C2CCC(=O)N2)C2(C(=O)NC3CCCCC3)CCCCC2)cc1 (stereo not given)
 : -14	-0.1	-4	2	2	0
- Cc1c(NC(=O)CN2C(=O)C(=O)N(Cc3ccccc3)C2=O)c(=O)n(-c2ccccc2)n1C
 : -6	-0.4	-1	8	-14	.
- COCCCn1c(SCc2nc3ccccc3c(=O)[nH]2)nc2ccccc2c1=O
 : 21	0.7	-21	2	-10	1
- COc1cccc(CN2CCNC(=O)C2CC(=O)NCc2cc(C(C)C)no2)c1 (stereo not given)
 : -4	-0.8	0	7	5	3
- CN1CCN(C(=O)/C(=C/c2cccnc2)NC(=O)c2cccc(Br)c2)CC1
 : 0	-0.9	5	2	11	22
- CCOc1ccccc1NC(=O)C1CCCN(S(=O)(=O)c2ccc(-n3cnnn3)cc2)C1 (stereo not given)
 : 0	0.8	-16	3	-6	-12
- COc1ccccc1N1CCN(C(=O)c2cc(-c3ccco3)on2)CC1
 : -2	-0.4	.	-3	43	4
- O=C(c1ccc(F)cc1)N1CCCCC(Sc2nnc3ccccn23)C1=O (stereo not given)
 : -15	0.6	-4	2	-10	2
- CCOC(=O)c1nnn(-c2ccc([N+](=O)[O-])cc2)c1C
 : -3	-0.5	-32	3	2	3
- Cc1ccnc(NCc2cccc3ccccc23)c1
 : 0	1.5	-5	-4	20	-3
- COC(=O)c1ccc(CN2C(=O)NC(c3ccccc3)(c3ccccc3)C2=O)o1
 : -5	0.8	6	-1	-4	-5
- O=C(O)/C=C/C(=O)c1ccc2c(c1)CCc1ccccc1-2
 : -36	1.6	3	?	-9	1
- COc1ccc(-c2csc3ncn(CC(=O)N4CCOCC4)c(=O)c23)cc1
 : 0	0.2	0	-3	-10	1
- CCCC(=O)Nc1nc(-c2ccccc2)ns1
 : -14	0.1	-11	-1	1	0
- COc1cc(C(=O)N/N=C/C2CC=CCC2)cc(OC)c1OC (stereo not given)
 : -36	0.7	5	1	-11	6
- O=C(Nc1ccc(NC(=O)c2ccccc2F)cc1)c1cccs1
 : 1	-0.7	-11	-3	13	.
- CCOc1ccc(S(=O)(=O)N2CCN(C(=O)CCOc3ccccc3C)CC2)cc1
 : 3	0.4	2	-4	-4	3
- COc1ccc(O)c(-c2[nH]ncc2C(=O)c2cccc(C)c2)c1
 : -10	-0.1	-7	13	84	2
- CCc1ccccc1NC(=O)CSc1nnc(CNC(=O)c2ccco2)n1C
 : -15	0.4	19	3	10	4
- Clc1ccc2nc(C3CCN(Cc4ccccc4)CC3)[nH]c2c1
 : -18	0.8	2	-1	7	-26
- NC(=O)c1nsc(C(=O)N(Cc2cccnc2)C(C(=O)NCc2ccc(F)cc2)c2ccc(O)cc2)c1N (stereo not given)
 : -9	-0.4	11	-4	-9	0
- CCn1c(SCC(=O)NCCCN2CCCC2=O)nnc1-c1cccc(C)c1
 : 30	0.0	12	6	-11	-19
- COc1ccc(CC(=O)Nc2cc(Cl)ccc2C(=O)O)cc1
 : -7	3.2	19	-4	-6	4
- Cc1cc(C)c(C(=O)Cn2nc(C)c([N+](=O)[O-])c2C)cc1C
 : -17	0.9	-11	2	-3	0
- O=C(CSc1ccccc1C(=O)N1CCN(c2ccccc2)CC1)N1CCCC1
 : -3	0.6	-6	-2	4	7
- CCOC(=O)C1(CCOc2ccccc2)CCN(Cc2cccc(OCCO)c2)CC1
 : -16	0.1	18	-2	7	0
- COc1ccccc1C(=O)OCCN=C1NS(=O)(=O)c2ccccc21
 : -2	1.0	25	-1	?	11
- CCc1nnc(NC(=O)CSc2nc3cc(OC)c(OC)cc3cc2C)s1
 : 6	2.7	-19	2	8	-19
- O=C(NC(NCc1ccccc1)C(Cl)(Cl)Cl)c1cccnc1 (stereo not given)
 : 12	0.7	.	9	-16	9
- Cc1cccc2cc(CN(CC3CCCO3)C(=O)c3ccncc3)c(=O)[nH]c12 (stereo not given)
 : -6	-0.5	20	5	-5	4
- NC(=NCCc1c[nH]c2ccccc12)NS(=O)(=O)c1cc(F)ccc1F
 : 0	1.1	-29	-2	-1	-1
- COc1ccccc1N1CCN(C(=O)CSc2ccccc2)CC1
 : -5	-1.0	-7	4	22	8
- O=C(CCc1ccccc1)NNC(=O)c1ccccc1Cl
 : -4	-0.1	12	0	-2	1
- Cc1nnc(NC(=O)CN2CCN(Cc3c(Cl)cccc3Cl)CC2)s1
 : -26	-0.2	4	-9	-21	1
- COc1ccc(C(=O)Cc2cc3ccccc3oc2=O)cc1
 : -5	-0.1	-9	5	-4	.
- COCCNC(=S)N1CCC(c2nc(-c3ccc(F)cc3)no2)CC1
 : 2	0.0	13	3	-1	-10
- CCN1CCN(c2nc(C)c3c(n2)CCCC3=O)CC1
 : -18	0.1	3	6	4	-1
- CNc1ccc2ncc(-c3cccc(C(=O)N(C)C)c3)n2n1
 : -2	1.0	.	?	.	-29
- COc1ccccc1CC(=O)Nc1ccc(S(=O)(=O)N2CCCC2)cc1
 : -4	-0.1	-14	-14	-7	0
- CCc1ccccc1NC(=O)C1CCCN(c2ncccn2)C1 (stereo not given)
 : -3	-0.4	0	4	30	2
- COc1ccccc1NC(=O)CN1C(=O)NC2(CCCc3ccccc32)C1=O (stereo not given)
 : -4	0.0	16	4	-8	-10
- CC(=O)Nc1ccc(NC(=O)c2cc[n+]([O-])cc2)cc1
 : -9	-0.2	12	5	12	4
- O=C(CN1C(=O)NC2(CCCCC2)C1=O)Nc1cccc(S(=O)(=O)N2CCCC2)c1
 : -33	0.1	-3	-4	5	6
- Cc1nnc(CN(C)C(=O)CC2C(=O)NCCN2Cc2ccccc2C)o1 (stereo not given)
 : -4	0.0	6	-5	18	-3
- O=C(NNC(=O)c1c(O)c2ccccc2[nH]c1=O)c1ccccc1Br
 : -6	0.0	0	-75*	14	?
- O=C(c1ccccc1)N1CCCCC(S(=O)(=O)c2ccccc2)C1=O (stereo not given)
 : -5	-0.5	13	4	2	9
- CN(C)c1cccc2c1c(NC(=O)Nc1ccc(Cl)cc1Cl)nn2C
 : -15	-0.2	?	-10	-4	.
- COc1ccccc1CC(=O)N1CCN(C(=O)c2ccco2)CC1
 : -9	-0.3	-11	2	-14	4
- C=CC(=O)NCc1ccc(-c2csnn2)cc1
 : -5	-0.1	-3	7	24	6
- Cc1cc(NC(=O)CON=C(N)CC(=O)Nc2ccccc2Cl)ccc1Br
 : -41	0.2	12	1	-7	3
- Cc1ccc2cc(CN(CCCO)S(=O)(=O)c3ccccc3F)c(=O)[nH]c2c1C
 : -9	-0.5	9	-11	-6	-11

Complete entries as entered above. Order of values: D2 potentiator	TRPML1 ag	TRPV1 potentiator	Six1-Eya2 inh	TRPML1 blocker	CtBP-E1A inh
Cc1nnc(CN(C)C(=O)CC2C(=O)NCCN2Cc2ccccc2C)o1 (stereo not given) in the list: -4	0.0	6	-5	18	-3
Cc1cc(NC(=O)CON=C(N)CC(=O)Nc2ccccc2Cl)ccc1Br in the list: -41	0.2	12	1	-7	3
Cc1cc(C)c(C(=O)Cn2nc(C)c([N+](=O)[O-])c2C)cc1C in the list: -17	0.9	-11	2	-3	0
CCN1CCN(c2nc(C)c3c(n2)CCCC3=O)CC1 in the list: -18	0.1	3	6	4	-1
CCc1nnc(NC(=O)CSc2nc3cc(OC)c(OC)cc3cc2C)s1 in the list: 6	2.7	-19	2	8	-19

(continued)
The line under a structure holds: D2 potentiator	TRPML1 ag	TRPV1 potentiator	Six1-Eya2 inh	TRPML1 blocker	CtBP-E1A inh
- CC(=O)c1ccc(S(=O)(=O)N2CCN(C(=O)/C=C/c3ccc4ccccc4n3)CC2)cc1
 : -2	.	4	-4	.	1
- CCCCCCC1CC(C)(C(=O)CNc2nncs2)OC1=O (stereo not given)
 : -15	3.6	3	11	5	-10
- CCOc1cccc(NC(=O)c2ccc(S(=O)(=O)N3CCCC3)cc2)c1
 : -6	-0.1	-6	4	-6	-2
- Cn1ncc(Br)c1C(=O)OCC(=O)Nc1nc(-c2ccccc2)cs1
 : -14	2.1	-5	-2	4	-3
- CC(=O)N1C(=O)/C(=C2\SC(=S)N(NC(=O)c3ccc(O)cc3)C2=O)c2ccccc21
 : 20	-0.6	-18	-21	2	-27
- CN(CC(=O)NCCCN1CCOCC1)S(=O)(=O)c1ccc(F)cc1
 : -8	-0.2	3	11	4	18
- COc1ccc(N2CCN(CCCNC(=O)CCC(=O)N3CCOc4ccc(Cl)cc43)CC2)cc1
 : -39	0.2	-11	-18	-4	?
- COC(=O)C(C)Sc1nnc(Cc2cc(=O)[nH]c(=O)[nH]2)n1-c1cc(C)ccc1C (stereo not given)
 : -3	-0.1	.	1	-10	6
- Fc1ccc(CNC(=S)Nc2ccc(Cl)cc2Cl)cc1
 : -6	1.6	-19	8	16	-4
- C[C@H](CO)N1C[C@H](C)[C@@H](CN(C)Cc2ccc3c(c2)OCCN3C)OCc2cnnn2CCCC1=O
 : 5	-0.1	.	24	-7	9
- CN(C)C(=O)c1cnc(-c2ccccc2)nc1-c1ccccc1
 : 6	-0.6	-21	-1	6	-4
- CC(C)(C)c1ccc(C(=O)Nc2ccc(C(=O)N3CCCC3)cc2)cc1
 : 7	1.9	-4	0	-7	14
- COc1ccc([C@H]2C(C#N)=C([S-])N[C@](C)(O)[C@@H]2[n+]2ccccc2)cc1
 : -20	1.6	18	-2	2	.
- Cc1ccccc1OCC(=O)Nc1ccccc1-c1ccccc1
 : 5	.	-4	15	.	12
- CCn1c(NC(=O)c2cccc(Cn3cc(Cl)cn3)c2)nc2ccccc21
 : -7	2.7	7	2	27	4
- COC(=O)C1C(O)=C(C=NC2CCCCC2)C(=O)CC1(C)C (stereo not given)
 : 7	-0.5	7	8	9	8
- CSc1nnc(C(C)(C)C)c(=O)n1/N=C/c1ccc(C(C)C)cc1
 : 0	1.4	15	-4	8	6
- Cc1n[nH]c(C)c1NC(=O)CSc1nnnn1-c1cccc(F)c1
 : -2	2.9	.	1	10	-4
- C#CC[N+](C)(C)CCCCCCCCC
 : -7	0.0	-8	12	56	0
- Cc1cc(C)c2nc(-c3ccccn3)cc(C(=O)NCc3ccco3)c2c1
 : 3	3.1	-19	0	-8	-3
